Source: PubChem
RE007 growth inh: less growth of the S. pombe RE007 Vpr strain; S. pombe RE007 Vpr strain, BacTiter-Glo ATP luminescence, 24 h; control for the full effect not named in the record; Potency, µM (doses to about 92.2 µM), inactives show top-dose activity change, negative = less growth; hit rate 0.21% among 360,000; AID 651644; active = well fitted falling curve with a large enough effect; inconclusive = small, poorly fitted or top-dose-only effect; inactive = no such curve, though single readings can be large or run the other way;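 note: % is set by controls: 0 for no effect and ±100 for the full control effect; nearly all actives have a fitted effect of over 50% in size; the assay follows cell death caused by Vpr and the record does not say whether a fall means rescue or toxicity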
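Fission yeast strain RE007, carrying one chromosomally integrated HIV-1 vpr copy, was seeded at OD 0.01 in PMG+AL medium with 23 nL pinned compound. After 24 h at 30 °C and 99% humidity, viability was read by BacTiter-Glo luminescence.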
NS1 function inh: inhibitors of influenza NS1 protein function. S. cerevisiae slowed by influenza A NS1, growth recovery by OD600. Potency, µM (doses to about 46.1 µM), for the others: top-dose activity, positive = more growth. hit rate 0.4% among 270,000. AID 2326; active means well fitted rising curve with a large enough effect; inconclusive means small, poorly fitted or top-dose-only effect; inactive means no such curve, though single readings can be large or run the other way; note: nearly all actives have a fitted effect of over 50% in size
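S. cerevisiae expressing influenza A NS1, grown in glucose, washed, then diluted 1:100 into pH 6.0 -URA galactose medium with 23 nl compound. Growth recovery read as OD600; NS1-free strain serves as control.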
Marburg entry inh: blocks Marburg virus binding to or entry into cells. Marburg virus pseudotyped entry inhibition, cell reporter; control for the full effect not named in the record; about a third of the inactives were read at about 46 µM. Potency, µM (highest dose often 37.8 µM), for the others: top-dose activity change, negative = inhibition, usual class: inhibitors. hit rate 1.8% among 300,000. AID 540276; active = well fitted inhibition curve with a large enough effect; inconclusive = small, poorly fitted or top-dose-only effect, or effect the other way; inactive = flat fitted curve, though single readings scatter; tested in HEK293 cells; about a fifth of its hits are not listed in these tables; note: % is set by controls: 0 for no effect and ±100 for the full control effect; luciferase read-out
Cruzain inh Det: blocks cruzain activity in presence of Triton detergent; Potency, µM, inactives show max response, negative = inhibition, hits mostly inhibitors; purified cruzain, Z-FR-AMC fluorescence, 0.01% Triton; hit rate 0.43% among 200,000;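 note: plate controls were neutral wells for no effect and buffer without enzyme for full effect; nearly all actives have a fitted effect of over 40% in size; top concentration of the series not given in the record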
Target sequence (P25779 123-467 limits assumed): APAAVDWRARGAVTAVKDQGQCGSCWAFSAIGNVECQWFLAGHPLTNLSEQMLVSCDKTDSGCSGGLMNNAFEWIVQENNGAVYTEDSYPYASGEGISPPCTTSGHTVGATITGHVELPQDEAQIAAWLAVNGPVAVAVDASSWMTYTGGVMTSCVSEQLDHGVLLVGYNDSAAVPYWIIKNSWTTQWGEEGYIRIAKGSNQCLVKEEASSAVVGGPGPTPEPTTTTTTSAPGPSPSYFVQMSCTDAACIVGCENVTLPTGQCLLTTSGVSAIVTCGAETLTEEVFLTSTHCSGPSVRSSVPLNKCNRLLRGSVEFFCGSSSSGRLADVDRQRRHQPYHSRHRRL
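Steps: dispense cruzain (1.5 nM final) in acetate buffer pH 5.5 with DTT and 0.01% Triton X-100; pin-transfer compounds; incubate 15 min RT; add Z-FR-AMC (2 uM final); read fluorescence every 30 s, using the 60 s intensity change.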
Cruzain noTriton: cruzain (T. cruzi) inhibition without detergent | P25779 | purified cruzain, Z-FR-AMC fluorescence, no detergent | Potency, µM, inactives show max response, negative = inhibition, actives largely listed as inhibitors | hit rate 2.3% among 200,000 | AID 1476;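 note: plate controls were enzyme without inhibitor for no effect and buffer without enzyme for full effect; nearly all actives have a fitted effect of over 40% in size; top concentration of the series not given in the record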
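Detergent-free condition (0.00005% Triton X-100) in acetate buffer pH 5.5 with DTT. 1.5 nM enzyme and compound were pre-mixed 15 min, then 2 uM Z-FR-AMC substrate added; reaction progress from fluorescence change between first and third reads (60 s).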
2A StopGo: FMDV 2A StopGo reporter, luciferase signal; Potency, µM (top dose mostly 57.9 µM), inactives show top-dose signal change, negative = less light; hit rate 1.2% among 410,000; AID 1159524; human cells with a luciferase reporter of 2A StopGo recoding; control for the full effect not named in the record; active = well fitted falling curve with a large enough effect; inconclusive = small, poorly fitted or top-dose-only effect; inactive = no such curve, though single readings can be large or run the other way; tested in HEK293T cells; note: % is set by controls: 0 for no effect and ±100 for the full control effect; nearly all actives have a fitted effect of over 45% in size; luciferase light after 4 h
SARS PLP yeast: SARS-CoV PLP inhibition in yeast; S. cerevisiae expressing SARS-CoV PLpro, growth rescue; control for the full effect not named in the record; Potency, µM (doses to about 32.9 µM), inactives show at the top dose activity, positive = growth rescue; hit rate 0.19% among 330,000; AID 485353; active means well fitted rising curve with a large enough effect; inconclusive means small, poorly fitted or top-dose-only effect; inactive means no such curve, though single readings can be large or run the other way; note: 0% is about no effect; nearly all actives have a fitted effect of over 55% in size; growth read by luminescence after 48 h
LASV entry inh: inhibitors of Lassa virus binding or cell entry. Lassa virus pseudotype entry inhibition, cell reporter; control for the full effect not named in the record. Potency, µM (titrated, usually from 37.9 µM), inactives show at the highest dose activity change, negative = inhibition, most hits filed as inhibitors. hit rate 1.2% among 300,000; active means well fitted inhibition curve with a large enough effect; inconclusive means small, poorly fitted or top-dose-only effect, or effect the other way; inactive means flat fitted curve, though single readings scatter; tested in HEK293 cells; note: % is set by controls: 0 for no effect and ±100 for the full control effect; nearly all actives have a fitted effect of over 50% in size; luciferase read-out
Active calls of the source: *; ? = inconclusive; / = no result given; [ ] = another dose, or the depositor's remark. Unless noted, calls come from the whole dose curve; as a rule, active = well fitted curve in the direction sought with a large enough effect; inconclusive = small, poorly fitted or top-dose-only effect, or another doubt; inactive = no such curve, though single readings can be large; an effect the other way counts as inactive or inconclusive. Potency is the fitted concentration of half-maximal effect.

SMILES	RE007 growth inh	NS1 function inh	Marburg entry inh	Cruzain inh Det	Cruzain noTriton	2A StopGo	SARS PLP yeast	LASV entry inh
CCCCNc1ccc(-c2nc(-c3ccncc3)no2)cc1[N+](=O)[O-]	/	/	-17%[46.1 µM]	-4.7%	7%	19%	/	21%[46.1 µM]
Cc1nc(C)c(C(=O)NCc2ccc(Cl)cc2)o1	14%	0%	3%	0.3%	-16%	?	11%	1%
COCC(=O)Nc1c(C(=O)Nc2cccc(OC)c2)oc2ccccc12	-5%	-18%	?	-10%	-1%	51%[activator]	5%	-69%
O=C(CSc1nnc2ccccn12)NC(=O)c1cccc([N+](=O)[O-])c1	7%	/	10%[46.1 µM]	/	/	-11%	3%	9%[46.1 µM]
CC(=O)c1ccc(NC(=O)c2cc3nc4c(c(C(F)(F)F)n3n2)CCCC4)cc1	/	2%	/	-1.3%	-13%	/	1%	/
COc1ccc(CCn2c(-n3nc(C)cc3C)nc3c2c(=O)[nH]c(=O)n3C)cc1	?	1%	-14%	/	/	-26%	/	-24%
Cc1ccc(C(=O)NCc2ccc(N3CCN(C)CC3)cc2)cc1C	5%	2%	/	/	/	38%[activator]	-4%	/
O=C(c1ccc(F)cc1)C(CCCCCC(CN1CCOCC1)C(=O)c1ccc(F)cc1)CN1CCOCC1 (stereo not drawn)	7%	3%	?	2.0%	7%	?	-1%	?
CCOc1ccc(-n2c(C)nc3cc(C(=O)NCCCN4CCOCC4)ccc32)cc1	-19%	2%	-20%	2.4%	-7%	-25%	-3%	-7%
Cc1cccc(-n2c(O)c(/C=C/C=Nc3ccccc3)c(=O)[nH]c2=O)c1	-8%	4%	?	-18%	-25%	-11%	0%	2%
Cc1csc(NC(=O)CSc2nccn2Cc2ccco2)n1	1%	4%	/	/	/	-7%	11%	/
Cc1cc(O)cc(=O)n1Cc1ccco1	-1%	9%	15%	-2.4%	3%	-10%	2%	-2%
CC(C)(C)OC(=O)NCCCCCc1nnc(SCC(N)=O)o1	-14%	3%	27%	2.6%	0%	-15%	-1%	-3%
COc1ccc(C(=O)NCc2csc(-c3cccs3)n2)cc1	-17%	-41%	/	/	/	-9%	-2%	/
CCN(CC(=O)Nc1ccc(NC(C)=O)cc1)C(=O)CCCc1nc2ccccc2c(=O)[nH]1	8%	/	0%	/	/	-16%	-2%	12%
Cc1ccc(C(=O)N2CCN(c3ccc(NC(=O)COc4ccccc4C)cc3)CC2)cc1	5%	9%	?	/	/	14µM*	0%	?
Cc1ccc(/C(N)=N/OC(=O)CCC2CCCC2)cc1	-18%	3%	2%[46.1 µM]	/	/	36%[activator]	0%	7%
O=C(Cn1nnc2ccccc21)N1CCCCC1	-2%	8%	11%	6.9%	1%	-10%	0%	4%
CCOc1ccc(Nc2cc(C)nc3nc(Cc4ccc(Cl)cc4)nn23)cc1	/	/	17%[46.1 µM]	-5.7%	-3%	-6%	/	?
Cc1cc(=O)n2c(n1)OC(CO)C2 (stereo not drawn)	-1%	1%	12%	-7.0%	0%	/	1%	14%
O=C(CSc1ccc(-c2cccc([N+](=O)[O-])c2)nn1)N1CCCCC1	-9%	/	0%[46.1 µM]	/	/	-7%	-7%	2%[46.1 µM]
COC(=O)c1ccc(NC(=O)c2ccc(CN3CCOCC3)cc2)cc1	-2%	-24%	?	2.9%	4%	22µM*	6%	-22%[14.3 µM]
CCC(C)(C)n1nnnc1C(c1ccccc1F)N1CCN(C(=O)c2ccco2)CC1 (stereo not drawn)	3%	-5%	4%[46.1 µM]	/	/	-5%	-8%	-12%
CN(c1ncc(C(F)(F)F)cc1Cl)N1C(=O)c2cccc([N+](=O)[O-])c2C1=O	41%	5%	/	/	/	-17%	0%	/
CCn1c(=O)cc(SCC(=O)NCCCN2CCN(c3ccccc3F)CC2)c2ccccc21	-8%	3%	?	-0.4%	-2%	-26%	-10%	-7%

Some of the entries so far, with two lines to a compound:
Values in the order – RE007 growth inh	NS1 function inh	Marburg entry inh	Cruzain inh Det	Cruzain noTriton	2A StopGo	SARS PLP yeast	LASV entry inh
Cc1ccc(/C(N)=N/OC(=O)CCC2CCCC2)cc1
→ -18%	3%	2%[46.1 µM]	/	/	36%[activator]	0%	7%
O=C(Cn1nnc2ccccc21)N1CCCCC1
→ -2%	8%	11%	6.9%	1%	-10%	0%	4%
CCOc1ccc(Nc2cc(C)nc3nc(Cc4ccc(Cl)cc4)nn23)cc1
→ /	/	17%[46.1 µM]	-5.7%	-3%	-6%	/	?
Cc1cc(=O)n2c(n1)OC(CO)C2 (stereo not drawn)
→ -1%	1%	12%	-7.0%	0%	/	1%	14%

Additional entries follow:
SMILES	RE007 growth inh	NS1 function inh	Marburg entry inh	Cruzain inh Det	Cruzain noTriton	2A StopGo	SARS PLP yeast	LASV entry inh
Cc1cc(C)cc(NC(=O)CSc2n[nH]c(-c3cccnc3)n2)c1	-8%	0%	11%[46.1 µM]	/	/	26%	-2%	0%[46.1 µM]
O=C(COC(=O)c1ccc(F)cc1Cl)NC1CCCCCCC1	35%	/	2%[46.1 µM]	/	/	29%	-12%	6%[46.1 µM]
Cn1cc(Br)c(C(=O)Nc2ccc3c(C(F)(F)F)cc(=O)oc3c2)n1	-5%	-1%	/	/	/	-10%	2%	/
Cn1cnc([N+](=O)[O-])c1SCC(O)CCl (stereo not drawn)	-4%	/	?	/	/	-12%	1%	18%[46.1 µM]
CC(=O)N1c2ccc(S(=O)(=O)NCCC(=O)Nc3ncccc3C)cc2CC1C (stereo not drawn)	-5%	-2%	11%[46.1 µM]	/	/	-4%	2%	3%[46.1 µM]
O=C(NCCN1CCOCC1)/C(=C\c1ccccc1F)NC(=O)c1ccccc1	4%	4%	/	/	/	-24%	-2%	/
COCCn1nnnc1CN1CCN(C(=O)c2ccco2)CC1	-7%	-2%	6%[46.1 µM]	/	/	2%	3%	16%
COc1ccccc1CNC(=O)c1cc(=O)c2ccccc2o1	-2%	/	-8%[46.1 µM]	/	/	-7%	-2%	-28%[46.1 µM]
Cc1cc(C)c(C(=O)NCCCN2CCOCC2)c(C)c1	2%	9%	4%	/	/	-11%	0%	-6%
C[C@]12CCC(=O)CC1CCC1C2CC[C@@]2(C)C1CC[C@@]21CCO1 (stereo partly drawn)	13%	-6%	?	/	/	-26%	-2%	-23%
COc1ccc(NS(=O)(=O)c2ccc(C)c(C(=O)NC3CCN(Cc4ccccc4)CC3)c2)cc1	-4%	-1%	?	/	/	?	-5%	-22%
COc1ccc(Cn2nnnc2C(c2ccc(N(C)C)cc2)N2CCC(C(N)=O)CC2)cc1 (stereo not drawn)	-5%	7%	-2%[46.1 µM]	/	/	-15%	0%	?
O=[N+]([O-])c1ccc(Sc2cc[n+]([O-])c3ccccc23)c([N+](=O)[O-])c1	4%	5%	?	/	/	?	0%	?
NC(=S)Nc1ccc2cn[nH]c2c1	-3%	/	?	/	/	0%	1%	19%[46.1 µM]
Cc1ccc(C)c(OCc2cc(C(=O)N3CCN(C(=O)c4ccco4)CC3)no2)c1	7%	-39%	-15%	/	/	10%	-1%	-11%
CCOC(=O)C(=CNc1ccc(C(F)(F)F)cc1)C(=O)OCC	-7%	5%	-19%	/	/	-9%	0%	-16%
O=C(CN1CCN(c2ccccc2)CC1)Nc1ccccc1Sc1ccccc1	5%	-8%	4.5µM*	-6.5%	10%	-1%	-2%	?
COc1ccc(/C=N/NC(=O)Cc2cccs2)cc1	-8%	-2%	/	/	/	83%[activator]	0%	/
CCN1CCN(c2nc(Nc3ccc(NC(C)=O)cc3)nc(Nc3ccc(NC(C)=O)cc3)n2)CC1	-1%	-3%	-3%[46.1 µM]	/	/	-5%	-6%	-13%
CCCNC(=O)OC[C@H]1O[C@H](CCO/N=C(\C)CCN2CCc3nc(-c4ccccc4)c(-c4ccccc4)cc3C2)C=C[C@@H]1Oc1ccc(OC)cc1	/	26%	-39%	-0.3%	0%	/	-7%	3%
Cc1n[nH]c(=O)nc1NCc1ccccc1	8%	8%	-5%	2.0%	-6%	10%	3%	20%
CC(=O)Nc1cccc(NC(=O)Cn2cnc3c(oc4ccccc43)c2=O)c1	/	/	/	-8.4%	18%	-13%	/	-11%[46.1 µM]
CCCC(=O)Nc1cc(-c2nn(C)c(=O)c3ccccc23)ccc1OC	22%	-15%	?	-0.4%	-10%	14%	-5%	-21%
CCC(C)(C)NC(=O)C(c1ccc(C)cc1)N(Cc1cccs1)C(=O)c1ccc2c(c1)OCCO2 (stereo not drawn)	-15%	-44%	15µM*	-0.5%	-1%	-22%	-7%	?
O=S(=O)(c1ccc(Cl)c(C(F)(F)F)c1)N1CCN(CC(O)COc2ccccc2F)CC1 (stereo not drawn)	-15%	-13%	-6%[46.1 µM]	/	/	-26%	-3%	-19%
(list continues)
SMILES	RE007 growth inh	NS1 function inh	Marburg entry inh	Cruzain inh Det	Cruzain noTriton	2A StopGo	SARS PLP yeast	LASV entry inh
COc1ccc(N(CC(=O)Nc2c(C)n(C)n(-c3ccccc3)c2=O)S(=O)(=O)c2ccc(C)cc2)cc1	29%	-5%	10%	/	/	4%	-1%	-1%
Cc1cccc(CSc2ccc3nnc(-c4cccnc4)n3n2)c1	1%	10%	11%	-1.4%	-6%	-27%	0%	-11%
Cn1c(N)c(C(=O)COC(=O)/C=C/c2ccc(F)cc2)c(=O)n(C)c1=O	-2%	/	-1%	/	/	-19%	5%	1%
Cn1c(=O)oc2cc(S(=O)(=O)NC(Cc3ccccc3)C(=O)NCc3ccccc3Cl)ccc21 (stereo not drawn)	/	/	26%[46.1 µM]	3.1%	?	-6%	/	-8%[46.1 µM]
Cc1cccc(Cc2nnc(CCC(=O)NCc3cn4ccccc4n3)o2)c1	0%	9%	-3%[46.1 µM]	/	/	0%	1%	10%[46.1 µM]
Cc1ccc(-c2ccc(=O)n(CC(=O)NCCCN3CCCCC3C)n2)cc1 (stereo not drawn)	3%	-7%	-5%	2.8%	-3%	/	2%	3%

Outcome played no part in choosing rows; overall some 4.6% were active at least once.
